PV pol inh: poliovirus RdRp elongation inhibitors, primary screen, biochemical, fluorescence polarization, total intensity; Genome polyprotein (Poliovirus type 1 (strain Mahoney)), P03300; poliovirus polymerase elongation; hits give low values; % elongation, % (compound at 16.7 µg/mL); 150,000 tested, 0.66% active; AID 588519, 2011; in the data active = % elongation below about 90%; also: some results filed as inactive read as strong as hits
Target sequence (P03300 1749-2209 limits assumed): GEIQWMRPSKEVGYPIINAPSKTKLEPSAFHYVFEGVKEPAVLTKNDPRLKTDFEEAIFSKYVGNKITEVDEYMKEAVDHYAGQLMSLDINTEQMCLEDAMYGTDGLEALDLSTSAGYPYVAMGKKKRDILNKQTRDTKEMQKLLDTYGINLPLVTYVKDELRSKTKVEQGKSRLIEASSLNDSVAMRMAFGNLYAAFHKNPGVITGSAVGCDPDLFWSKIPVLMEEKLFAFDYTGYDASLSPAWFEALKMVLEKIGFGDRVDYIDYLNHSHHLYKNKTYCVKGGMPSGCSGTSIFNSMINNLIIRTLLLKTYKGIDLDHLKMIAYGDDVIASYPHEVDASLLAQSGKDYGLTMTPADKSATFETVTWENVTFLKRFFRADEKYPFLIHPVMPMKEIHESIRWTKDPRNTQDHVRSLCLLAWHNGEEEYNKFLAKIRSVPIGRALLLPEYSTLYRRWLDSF
PV pol inh intensity: further read-out of PV pol inh, marked with its call; % elongation; measured here: total intensity read-out; formula for this scale not given here;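 total fluorescence in place of polarization; lower means less elongation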
* marks the source's active call; other numbers are inactive results. Only part of the results is shown, so the mix of outcomes need not match the whole.

For Cc1cc(C)n(CCc2nc3c4ccccc4nc(N4CCN(c5ccccc5F)CC4)n3n2)n1 the results were PV pol inh 104 and PV pol inh intensity 108.
Screening CCN(C(=O)Cn1ncc2c(=O)oc3ccc(C)cc3c21)c1cc(OC)ccc1OC returned PV pol inh 109 and PV pol inh intensity 109.
`COc1ccc(C(=O)Oc2c(Sc3ccccc3)c(C)nn2-c2ccccc2)cc1OC` gave PV pol inh 110 and PV pol inh intensity 110.
`O=C(CNC(=O)c1ccccc1)OCc1cc(=O)n2nc(C3CC3)sc2n1` gave PV pol inh 106 and PV pol inh intensity 112.
Screening Cc1ccc(N2CCN(C(=O)c3ccc(Nc4nc5ccccc5n5nnnc45)cc3)CC2)c(C)c1 returned PV pol inh 108 and PV pol inh intensity 113.
`COc1ccccc1-c1cc(C(F)(F)F)nc(S(=O)(=O)CCCC(=O)Nc2ccc(F)cc2F)n1` gave PV pol inh 106 and PV pol inh intensity 114.
CCn1c(C(=O)N2CCC(C(=O)NCCc3ccc(C)cc3)CC2)cc2sccc21 was read as PV pol inh 104 and PV pol inh intensity 109.
For O=C(CN1C(=O)COc2ccc(S(=O)(=O)N3CCCCCC3)cc21)N1CCN(c2ccc(Cl)cc2)CC1 the results were PV pol inh 107 and PV pol inh intensity 102.
O=C(Cc1ccccc1)Nc1sc2c(c1C(=O)Nc1ccccc1Cl)CCC2 was read as PV pol inh 102 and PV pol inh intensity 106.
For CCOc1ccc(C(=O)c2cn(Cc3ccccc3OC)c3cc4c(cc3c2=O)OCCO4)cc1 the results were PV pol inh 113 and PV pol inh intensity 115.
Screening COc1ccc(CNC(=O)C2=C(C)C(=O)OC23CCN(C(C)=O)CC3)cc1 returned PV pol inh 103 and PV pol inh intensity 82.
`Cc1ccccc1-c1noc(-c2ccc(NCc3cccnc3)c([N+](=O)[O-])c2)n1` gave PV pol inh 96 and PV pol inh intensity 109.
For Cc1cc(C)c(NC(=O)CSc2nc(=O)n(Cc3ccncc3)c3c2CCC3)c(C)c1 the results were PV pol inh 108 and PV pol inh intensity 108.
For CCS(=O)(=O)N1CCc2cc(C(=O)NCc3ccccc3OC)ccc21 the results were PV pol inh 106 and PV pol inh intensity 112.
`C=C(C)Cn1c(SCC(=O)Nc2cccc(C)c2)nc2sc3c(c2c1=O)CCCC3` gave PV pol inh 101 and PV pol inh intensity 99.
CCCOc1ccccc1C(=O)N1CCCCC1CCN1CCOCC1 (stereo not given) was read as PV pol inh 109 and PV pol inh intensity 115.
`CC(C)NS(=O)(=O)c1ccc(OCC(=O)N2CCN(c3ccccc3F)CC2)cc1` gave PV pol inh 111 and PV pol inh intensity 110.
For COc1ccc(CCNC(=O)c2ccc3c(c2)N(Cc2ccccc2F)C(=O)c2ccccc2S3(=O)=O)cc1OC the results were PV pol inh 110 and PV pol inh intensity 108.
`CCc1ccc(S(=O)(=O)c2nnn3c2nc(NCCNC(C)=O)c2cc(Cl)ccc23)cc1` gave PV pol inh 103 and PV pol inh intensity 107.
For CC(CNC(=O)CCCn1c(=O)c2cccn2c2ccccc21)c1ccccc1 (stereo not given) the results were PV pol inh 101 and PV pol inh intensity 105.
Screening CCOc1ccc(NC(=O)Cn2c(=O)n(-c3cccc(Cl)c3)c(=O)c3c2c2cc(C)ccc2n3C)cc1 returned PV pol inh 109 and PV pol inh intensity 108.
`CN(C(=O)C1=CC(c2ccc3c(c2)OCO3)=NS(=O)(=O)N1C)c1ccccc1` gave PV pol inh 114 and PV pol inh intensity 110.
Screening Cc1cc(C)n(CCc2nc3c4ccccc4nc(N4CCN(c5ccccc5)CC4)n3n2)n1 returned PV pol inh 104 and PV pol inh intensity 106.
For COc1ccc(Cl)cc1NS(=O)(=O)c1cc(-c2cc(C)no2)ccc1C the results were PV pol inh 108 and PV pol inh intensity 112.
For CCc1ccccc1NC(=O)Nc1nnc(N(CC)c2ccccc2)s1 the results were PV pol inh 106 and PV pol inh intensity 111.
Cc1cccc(N2C(=O)CSC23C(=O)N(CC(=O)Nc2cccc(Cl)c2)c2ccccc23)c1 (stereo not given) was read as PV pol inh 105 and PV pol inh intensity 102.
For COc1ccc(S(=O)(=O)N2CCN(Cc3nc4ccc(C)cc4o3)CC2)cc1OC the results were PV pol inh 104 and PV pol inh intensity 107.
CCc1ccc(NC(=O)c2cccc(N3CCCS3(=O)=O)c2)cc1 was read as PV pol inh 115 and PV pol inh intensity 116.
Screening CCOc1ccc(CNC(=O)Cn2nc(C)n3cccc3c2=O)cc1 returned PV pol inh 117 and PV pol inh intensity 116.
Screening Cc1cc(C(F)(F)F)nn1-c1nc(-c2ccccc2)cc(C(F)(F)F)n1 returned PV pol inh 102 and PV pol inh intensity 102.
CCC(=O)Oc1ccc(-c2nc3ccccc3c(=O)o2)cc1 was read as PV pol inh 104 and PV pol inh intensity 108.
`CC(C)NC(=O)Cn1ncn2c(cc3cc(F)ccc32)c1=O` gave PV pol inh 107 and PV pol inh intensity 112.
For CCOC(=O)c1noc2nc(C)n(CC(=O)NC(C)CC)c(=O)c12 (stereo not given) the results were PV pol inh 103 and PV pol inh intensity 100.
For CCOC(=O)c1ccc(NC(=O)c2ccc3c(c2)NC(=O)c2ccccc2S3)cc1 the results were PV pol inh 109 and PV pol inh intensity 114.
`Cc1ccc(NC(=O)CN2C(=O)CN=C(c3ccccc3)c3ccccc32)cc1Cl` gave PV pol inh 102 and PV pol inh intensity 102.
For COc1ccc(CNC(=O)CCCN2C(=O)CCn3nc(-c4cn(C)c5ccccc45)cc32)cc1 the results were PV pol inh 104 and PV pol inh intensity 110.
O=C(NCC(c1ccccc1)c1ccccc1)c1nn(-c2ccccc2F)nc1CO was read as PV pol inh 112 and PV pol inh intensity 104.
Cc1ccc(CNC(=O)NCc2noc3ccc(C)cc23)cc1 was read as PV pol inh 111 and PV pol inh intensity 110.
CC1=C(C(=O)Nc2cccc(Cl)c2)C2(CCCCCC2)OC1=O was read as PV pol inh 102 and PV pol inh intensity 106.
For Cc1c(NS(C)(=O)=O)cccc1-c1nc2ccccc2s1 the results were PV pol inh 102 and PV pol inh intensity 104.
COc1cccc(C(=O)Nc2cccc(C(=O)OCc3cc(=O)n4nc(C5CC5)sc4n3)c2)c1 was read as PV pol inh 102 and PV pol inh intensity 106.
Screening Cc1ccc(NC(=O)CN2C(=O)COc3ccc(S(=O)(=O)N4CCCCCC4)cc32)cc1C returned PV pol inh 111 and PV pol inh intensity 115.
CCOc1ccc(OCC)c(Nc2nc3ccccc3n3nnnc23)c1 was read as PV pol inh 106 and PV pol inh intensity 104.
`CCn1ccc2c(OCC(=O)Nc3ccccc3C(F)(F)F)cccc2c1=O` gave PV pol inh 108 and PV pol inh intensity 113.
CCc1ccc(O)c(C(=O)c2cnc3cc(-c4ccc(C)cc4)nn3c2)c1 was read as PV pol inh 106 and PV pol inh intensity 109.
O=C(COc1ccccc1)N(Cc1cccnc1)c1nc2ccc(F)cc2s1 was read as PV pol inh 112 and PV pol inh intensity 111.
COCCCNC(=O)CSc1nc2ccccc2c(=O)n1Cc1ccco1 was read as PV pol inh 108 and PV pol inh intensity 111.
For COc1ccccc1CNC(=O)CCCN1C(=O)CCn2nc(-c3cn(C)c4ccccc34)cc21 the results were PV pol inh 104 and PV pol inh intensity 108.

Retrieved one by one from the entries so far, 5 records:
`CCn1ccc2c(OCC(=O)Nc3ccccc3C(F)(F)F)cccc2c1=O` gave PV pol inh 108 and PV pol inh intensity 113.
O=C(NCC(c1ccccc1)c1ccccc1)c1nn(-c2ccccc2F)nc1CO was read as PV pol inh 112 and PV pol inh intensity 104.
COc1cccc(C(=O)Nc2cccc(C(=O)OCc3cc(=O)n4nc(C5CC5)sc4n3)c2)c1 was read as PV pol inh 102 and PV pol inh intensity 106.
CC1=C(C(=O)Nc2cccc(Cl)c2)C2(CCCCCC2)OC1=O was read as PV pol inh 102 and PV pol inh intensity 106.
COCCCNC(=O)CSc1nc2ccccc2c(=O)n1Cc1ccco1 was read as PV pol inh 108 and PV pol inh intensity 111.

(listing goes on)
`Cc1ccc(NC(=O)CCS(=O)(=O)c2ccc(Br)cc2)c(C)c1` gave PV pol inh 102 and PV pol inh intensity 105.
CCOC(=O)c1cnc2ccc(Cl)cc2c1Nc1ccc(OCC)cc1 was read as PV pol inh 102 and PV pol inh intensity 106.
For COc1ccccc1CNC(=O)CSC1=Nc2ccccc2N=C(c2ccc(F)cc2)C1 the results were PV pol inh 99 and PV pol inh intensity 106.
`Cc1ccc(CN(Cc2ccco2)C(=O)c2ccc(Cl)cc2)o1` gave PV pol inh 105 and PV pol inh intensity 98.
Screening COc1ccc(-c2nc3ccc(NS(=O)(=O)c4ccc(C)cc4)cc3o2)cc1 returned PV pol inh 109 and PV pol inh intensity 111.
`O=C(Nc1ccc(-c2nc3ccccc3o2)c(O)c1)c1ccccc1` gave PV pol inh 105 and PV pol inh intensity 99.
CS(=O)(=O)N1CCc2cc(C(=O)N3CCN(c4cccc(Cl)c4)CC3)ccc21 was read as PV pol inh 109 and PV pol inh intensity 111.
Cc1cc(C)c(NC(=O)C2CCN(C(=O)N3CC(C)Oc4ccc(Cl)cc43)CC2)c(C)c1 (stereo not given) was read as PV pol inh 106 and PV pol inh intensity 111.
Screening COCCCNC(=O)CCn1c(=O)c2ccccc2n(CC(=O)Nc2cc(Cl)ccc2OC)c1=O returned PV pol inh 103 and PV pol inh intensity 104.
`COc1ccc(-n2nc3c(N4CCCC(C(=O)NCc5cccc(F)c5)C4)nnc(C)c3c2C)cc1` (stereo not given) gave PV pol inh 124 and PV pol inh intensity 160.
For CC(=O)c1ccc(NC(=O)CCc2c(C)nc3c(c(C)nn3-c3ccc(C)cc3)c2C)cc1 the results were PV pol inh 102 and PV pol inh intensity 104.
Screening CC1=C(c2ccc(Cl)cc2)S(=O)(=O)N=C1N1CCN(c2cccc(C)c2)C(C)C1 (stereo not given) returned PV pol inh 103 and PV pol inh intensity 108.

Some of these compounds in order of number of heavy atoms, rising:
CCOc1ccc(OCC)c(Nc2nc3ccccc3n3nnnc23)c1 was read as PV pol inh 106 and PV pol inh intensity 104.
CCn1c(C(=O)N2CCC(C(=O)NCCc3ccc(C)cc3)CC2)cc2sccc21 was read as PV pol inh 104 and PV pol inh intensity 109.
For COc1ccccc1CNC(=O)CSC1=Nc2ccccc2N=C(c2ccc(F)cc2)C1 the results were PV pol inh 99 and PV pol inh intensity 106.

Next records.
Screening Cc1ccccc1C(=O)Nc1nc2nc(C)c(C)c(=O)n2[nH]1 returned PV pol inh 98 and PV pol inh intensity 105.
CCOC(=O)c1cccc(NC(=O)N2Cc3ccccc3Oc3ncccc32)c1 was read as PV pol inh 106 and PV pol inh intensity 104.
For CCOc1ccc(-c2nc3ccccc3c(=O)o2)cc1 the results were PV pol inh 108 and PV pol inh intensity 110.
Screening COCCc1nn2c(=O)cc(COC(=O)COc3ccccc3C)nc2s1 returned PV pol inh 112 and PV pol inh intensity 111.
COc1cccc(NC(c2nnc(-c3ccccc3)o2)c2ccc(F)cc2Cl)c1 (stereo not given) was read as PV pol inh 106 and PV pol inh intensity 107.
For COc1ccccc1N1CCN(CC(O)COc2ccc(C)cc2C(C)(C)C)CC1 (stereo not given) the results were PV pol inh 101 and PV pol inh intensity 103.
For COc1ccccc1CNC(=O)Cn1c(=O)oc2ccccc21 the results were PV pol inh 106 and PV pol inh intensity 111.
Screening Cc1csc2nc(-c3cccc(NC(=O)c4cccc(F)c4)c3)cn12 returned PV pol inh 114 and PV pol inh intensity 112.
Screening Cc1ccc(NC(=O)CN2C(=O)CCc3ccccc32)cc1C returned PV pol inh 98 and PV pol inh intensity 97.
For Cc1ccccc1NC(=O)Cn1nnc(C(=O)NCCc2ccccc2)c1N the results were PV pol inh 112 and PV pol inh intensity 109.
`COCCCNC(=O)c1ccc2c(c1)nc(C)n2-c1cccc(C)c1` gave PV pol inh 105 and PV pol inh intensity 106.
`CCOCCn1ccc2c(OCC(=O)Nc3ccc(C(N)=O)cc3)cccc2c1=O` gave PV pol inh 103 and PV pol inh intensity 104.
Screening COc1ccc(NC(=O)c2cc(C3CC3)nc3c2c(C)nn3-c2ccccc2)c(OC)c1 returned PV pol inh 101 and PV pol inh intensity 108.
Screening CCc1ccccc1NC(=O)Cn1nc(C)c2nn(-c3ccc(Cl)cc3)c(C)c2c1=O returned PV pol inh 112 and PV pol inh intensity 105.
`CN1CCN(C2(CNC(=O)c3ccc([N+](=O)[O-])cc3)CCCCC2)CC1` gave PV pol inh 105 and PV pol inh intensity 97.
Screening CCOc1ccc(S(=O)(=O)c2c(C(=O)c3ccc(CC)cc3)cnc3ccc(C)cc23)cc1 returned PV pol inh 106 and PV pol inh intensity 111.
CC(=O)Nc1ccc(NC(=O)CSc2nccn2Cc2ccc3c(c2)OCO3)cc1 was read as PV pol inh 100 and PV pol inh intensity 101.
COc1ccc(OC)c(NC(=O)C(C)n2c(=O)c(-c3ccccc3NC(C)=O)nc3ccccc32)c1 (stereo not given) was read as PV pol inh 106 and PV pol inh intensity 102.
`O=C(Nc1cccc(C(F)(F)F)c1)c1ccc2snnc2c1` gave PV pol inh 111 and PV pol inh intensity 113.

Compound activity from PubChem BioAssay.
